BJeLR lethal – kills HRASV12-expressing BJeLR cells; 300,000 tested, 0.17% active; BJeLR (HRASV12) viability, CellTiter-Glo ATP luminescence, 48 h; reference of the scale not given here; inhibition, % (concentration not given with the values);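 active means replicate mean above 50%; inconclusive means above 50% but judged a plate artefact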;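 further: 50 nL library stock added to about 25 µL; numbers are from one replicate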
Sa ugtP lethal – kills S. aureus RN4220 lacking UgtP | growth inhibition, % (concentration not given with the values) | 330,000 tested, 0.54% active | S. aureus RN4220 ugtP deletion, OD600 growth, 16 h; some inactives read as strong as hits;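 active means z-score under -3 and OD600 up to 0.15 on both plates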;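 further: plate controls were untreated wells for no effect and antibiotic for full effect; wells of about 80 µL received 100 nL stock; the first replicate is given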
PrP UTR inh – suppresses PrP 5' UTR mRNA reporter expression; inhibition, % (concentration not given with the values); 340,000 tested, 0.35% active; cell-based PrP 5' UTR mRNA reporter, plate reader;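 active means every replicate at 50% or more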;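 further: 0 = median of the neutral control wells; tested in H4 reporter cells; numbers are from one replicate; inactives centre near -14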
Mtb hypoxia rep – Mtb hypoxia fluorescent reporter inhibition; fluorescence inhibition, % (no concentration beside the values); AID 1159583; M. tuberculosis hypoxia-regulated fluorescent reporter, fluorescence; 300,000 tested, 0.1% active;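 active means 35 to 45% if threefold the growth effect, above 45% if 1.5-fold the growth effect; inactive means the rest, general growth blockers included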;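 further: wells of about 50 µL received 100 nL stock; 0% = vehicle wells and 100% = reference inhibitor wells; whole bacteria with a GFP reporter of the hypoxia response; strong numbers were not always called active; many hits fall short of the cut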
RN4220 kill – kills Staphylococcus aureus RN4220; S. aureus RN4220 growth, OD600, 16 h; inhibition, % (concentration not given with the values); 330,000 tested, 0.33% active;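 active means z-score of -3 or lower and OD600 up to 0.18 on both plates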;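 further: plate controls were untreated cells for no effect and reference antibiotic for full effect; stock transfer was 100 nL into about 80 µL; one replicate is shown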
Autofluor counter – flagged as autofluorescent in microsphere protease counterscreen; compound autofluorescence counterscreen, microsphere flow cytometry; active compounds read high; fluorescence intensity (test concentration not listed); 360,000 tested, 3.1% active;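 active means at least 3 SD above the mean of all compounds, about 16000 in these data; inconclusive means too few beads counted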;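 further: 100 nL of 1 mM stock went into each well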
Mtb hypoxia rep growth – further read-out of Mtb hypoxia rep, marked with its call; growth inhibition, %; measured here: M. tuberculosis growth (absorbance);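 0% = vehicle and 100% = reference antibiotic; read after six days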
* hit, by the source's call; ? = inconclusive; . = not tested or not shown.

Under each structure – BJeLR lethal	Sa ugtP lethal	PrP UTR inh	Mtb hypoxia rep	Mtb hypoxia rep growth	RN4220 kill	Autofluor counter
CC(C)C(=O)N1CCN(c2ccccc2NC(=O)c2cc([N+](=O)[O-])ccc2N2CCOCC2)CC1
  -2	-10	-17	-17	-11	4.4	4779
COc1ccc(C2C3=C(Nc4ncnn42)c2ccccc2CC3)cc1OC (stereo not drawn)
  -5	-2	.	-4	12	13	.
Cc1ccc(N(CC(=O)Nc2ccc(Br)c(C)c2)S(=O)(=O)c2c(C)[nH]c(=O)[nH]c2=O)cc1
  3	7	-17	-5	-2	0.1	4741
O=C(CN1CCc2ccccc2C1)c1cccs1
  8	9	-16	.	.	1.7	2951
CCN(CC)c1ccc(/C=N\NC(=O)c2cccc3cc[nH]c23)cc1
  -1	.	-22	.	.	.	3711
COC(=O)CC/C(O)=C1\C(=O)CC(C)(C)CC1=Nc1ccccc1OC
  -7	1	-3	.	.	-2.3	2798
Cc1cc(C)c2c(=O)n(CC(=O)NCCCN3CCN(c4ccccc4F)CC3)sc2n1
  -7	24	.	4	12	-7.2	.
CSc1ccc(Cn2nnc(C(=O)NCCc3ccc(Cl)cc3)c2N)cc1
  -5	-13	4	-17	4	-2.3	4548
Cc1nnc(SC(=O)N2c3ccccc3Sc3ccccc32)s1
  7	9	-32	15	16	4.5	10727
CCOP(=O)(c1ccccc1)c1nc(-c2ccc(F)cc2)oc1N1CCCCC1 (stereo not drawn)
  0	-12	-39	.	.	-6.2	3932
CCCCC(=O)Nc1nc(-c2ccc(S(=O)(=O)N3CCOCC3)cc2)cs1
  -8	-1	-14	9	3	1.9	5339
COCCCNc1nc2c(c(=O)[nH]c(=O)n2C)n1CC(O)COc1ccccc1 (stereo not drawn)
  4	3	-24	0	-3	3.8	4461
COc1ccc2c(c1OC)C(=O)OC2N1C(=O)CC[C@H]1C(=O)NCC1CCCO1 (stereo partly drawn)
  -6	4	-19	.	.	1.4	5362
COc1ccc(CC(=O)O/N=C(\N)Cc2cccc3ccccc23)cc1
  1	.	-15	.	.	.	2491
O=C(CNC(=O)c1ccccc1)OCC(=O)c1ccccc1Cl
  -5	5	-21	13	-1	0.4	5876
Cc1cc2c(cc1C)NC1=C(N2)OC(c2cccc(O)c2)C1=O (stereo not drawn)
  3	12	-11	8	-9	4.4	2972
Cc1ccc(C(=O)N2CCN(c3ncnc4c(-c5ccccc5)nsc34)CC2)cc1
  7	12	.	0	1	2.7	.
Cc1cc(NC(=O)CSc2nnc(-c3ccc4c(c3)OCCO4)o2)no1
  -10	-12	-28	.	.	-7.9	5361
COCCCNC(=O)CC1C(=O)N(Cc2ccccc2)C(C)c2nc3ccccc3n21 (stereo not drawn)
  -6	11	-24	-8	2	5.1	2522
O=C(COc1ccc([N+](=O)[O-])cc1)NCc1ccncc1
  -7	-2	-1	-1	11	-0.4	4947
CCc1c(C)sc(NC(=O)c2cc(-c3ccc(O)cc3)on2)c1C#N
  -1	-7	-12	-1	-1	-4.8	6609
CCOc1ccccc1NC(=O)COC(=O)CC(C)(C)CC1=NS(=O)(=O)c2ccccc2N1
  -5	1	-23	2	9	-1.8	6739
O=C(O)CCn1c(Cc2ccccc2)nc2ccccc21
  4	7	-50	14	6	1.3	4072
CC(=O)NNC(=O)CCn1nnc(-c2ccc(Cl)cc2)n1
  2	10	-27	16	10	9.0	3193
CCOC(=O)C1CCN(C(=S)Nc2ccc(C)cc2)CC1
  2	0	-11	7	2	4.4	4466
c1ccc(CC2CCCNC2)cc1 (stereo not drawn)
  -10	3	-7	15	11	15	4360
CN(C)C(CNC(=O)c1ccc(OCc2cn3ccccc3n2)cc1)c1ccco1 (stereo not drawn)
  .	2	-32	4	-2	1.2	4091
Cc1cc(NC(=O)CSc2nc3ccccc3s2)no1
  .	-6	-2	10	8	-7.9	2904
CSc1ccc(NN=C(C#N)S(=O)(=O)C(C)(C)C)cc1
  .	-2	.	1	-1	7.6	.
COc1ccc(NC(=O)CSc2ccc(-c3ccco3)nn2)c(OC)c1
  7	-8	-13	-3	-5	1.3	4093

Some of the entries so far, as labelled records:
Cc1nnc(SC(=O)N2c3ccccc3Sc3ccccc32)s1
  BJeLR lethal = 7
  Sa ugtP lethal = 9
  PrP UTR inh = -32
  Mtb hypoxia rep = 15
  Mtb hypoxia rep growth = 16
  RN4220 kill = 4.5
  Autofluor counter = 10727
CCOP(=O)(c1ccccc1)c1nc(-c2ccc(F)cc2)oc1N1CCCCC1 (stereo not drawn)
  BJeLR lethal = 0
  Sa ugtP lethal = -12
  PrP UTR inh = -39
  Mtb hypoxia rep = .
  Mtb hypoxia rep growth = .
  RN4220 kill = -6.2
  Autofluor counter = 3932
CCCCC(=O)Nc1nc(-c2ccc(S(=O)(=O)N3CCOCC3)cc2)cs1
  BJeLR lethal = -8
  Sa ugtP lethal = -1
  PrP UTR inh = -14
  Mtb hypoxia rep = 9
  Mtb hypoxia rep growth = 3
  RN4220 kill = 1.9
  Autofluor counter = 5339
COCCCNc1nc2c(c(=O)[nH]c(=O)n2C)n1CC(O)COc1ccccc1 (stereo not drawn)
  BJeLR lethal = 4
  Sa ugtP lethal = 3
  PrP UTR inh = -24
  Mtb hypoxia rep = 0
  Mtb hypoxia rep growth = -3
  RN4220 kill = 3.8
  Autofluor counter = 4461

(list continues)
Under each structure – BJeLR lethal	Sa ugtP lethal	PrP UTR inh	Mtb hypoxia rep	Mtb hypoxia rep growth	RN4220 kill	Autofluor counter
CC1CCCN(Cc2c(O)ccc3c(=O)c(-c4nc5ccccc5s4)c(N)oc23)C1 (stereo not drawn)
  2	-19	-12	-4	7	0.2	25322*
c1ccc(-c2cnnc(N3CCOCC3)n2)cc1
  -2	-7	-29	.	.	-3.7	2526
CCCCOC(=O)NC(NCC(O)c1ccccc1)(C(F)(F)F)C(F)(F)F (stereo not drawn)
  -2	-9	-59	4	15	-1.1	8276
Cc1ccc(C(=O)Nc2cccc(-c3nc4ncccc4o3)c2)cc1
  5	7	-6	11	-3	9.3	6245
Cc1cc(C)c2c(N)c(C(=O)NN3CC(=O)N(c4ccccc4)CC3=O)sc2n1
  -5	1	-13	5	6	1.1	5498
CCOc1ccc(C(C(=O)NC2CCCCC2)N(CCOC)C(=O)c2snc(C(N)=O)c2N)cc1 (stereo not drawn)
  6	11	-24	-2	-6	1.0	3043
CCOC(=O)C1CCN(CC(=O)Nc2ccc(OC)c(Cl)c2)CC1
  3	0	-25	-3	2	9.1	4317
O=C(Nc1cccc(-c2cccc(Cl)c2)c1)C1CCN(CC2CCOC2)CC1 (stereo not drawn)
  2	-4	-21	14	8	-1.3	5845
Cc1ccc2[nH]c(C(=O)O)c(NC(=O)c3ccccc3[N+](=O)[O-])c2c1
  -6	13	-16	3	3	4.4	2216
COc1cc(C(=O)Nc2cccc(NC(=O)c3ccccc3)c2)cc(OC)c1OC
  2	-2	-16	-10	5	-0.5	3933
COCCCN1C(=O)C(=O)/C(=C(/O)c2ccc(OCC(C)C)cc2)C1c1cccnc1 (stereo not drawn)
  -8	2	-4	20	-16	-19	2993
CCc1c(C)nc(SCC(=O)N2CCN(c3ccccc3)CC2)[nH]c1=O
  1	4	-24	-3	-2	3.1	2547
COc1ccc(C(=O)CSc2nc3nc(C)cc(C)n3n2)cc1OC
  -7	-11	-32	4	0	7.4	10549
Cc1cccc(N2CCN(C(=O)c3cc(C)oc3C)CC2C)c1 (stereo not drawn)
  1	4	-1	-5	3	6.2	2696
COc1ccc(NC(=O)N2CCCC2)cc1OC
  6	-1	-18	10	0	0.6	16119
Cc1onc(-c2ccccc2)c1C(=O)Nc1cccc(OC(C)C)c1
  4	3	-6	13	-1	-2.1	.
Cc1nc(N2CCN(C(=O)c3ccco3)CC2)c2c3c(sc2n1)CCC3
  -5	10	-16	.	.	-0.4	2697
Cc1cc(Cl)ccc1N=C1N=C(N)c2ccccc21
  6	-1	-93	17	-1	0.6	2356
O=C(c1cncc(Br)c1)N1CCN(c2ccc(N3CCOCC3)nn2)CC1
  -6	6	-8	8	9	2.3	4235
Cn1c(-c2nonc2N)nc2ccccc21
  -9	4	0	0	-2	2.4	3408
CC(=O)C1=C(C)Nc2ncnn2C1c1ccc(Cl)cc1 (stereo not drawn)
  -4	6	-14	19	8	6.8	4759
COC(=O)c1cc(CSc2ncnc3sccc23)oc1C
  -4	17	-12	6	11	2.4	3700
Cc1ccc(C)c(NC(=S)Nc2ccc(S(=O)(=O)Nc3ncccn3)cc2)c1
  0	12	-7	11	10	2.1	9362
COc1ccc(-c2noc(C3CCCN(C(=O)c4ccccc4OC)C3)n2)cc1 (stereo not drawn)
  16	7	-13	1	1	0.8	.
CCOC(=O)CNC(=O)Cn1c(C)cc2ccccc2c1=O
  2	7	-11	2	6	6.7	3093
CN(C(=O)c1ccno1)c1nnc(-c2ccccn2)s1
  -2	-3	-9	.	.	1.7	3784
CC(=O)N[C@@H](Cc1c[nH]c2ccccc12)C(=O)OCC(=O)Nc1ccc(Cl)c(S(=O)(=O)N(C)C)c1
  -7	-4	-16	-2	3	-1.8	3344
O=S(=O)(c1ccc2c(c1)OCCO2)N1CCN(S(=O)(=O)c2ccco2)CC1
  .	-3	-13	0	10	-1.8	4434
c1ccc(-c2csc(N3CCSCC3)n2)cc1
  8	20	-17	1	-7	3.4	4559
CCOc1cccc2cc(C(=O)N3CCc4ccccc43)c(=O)oc12
  -6	3	3	5	-9	1.8	12104

New compounds follow:
molecule | BJeLR lethal | Sa ugtP lethal | PrP UTR inh | Mtb hypoxia rep | Mtb hypoxia rep growth | RN4220 kill | Autofluor counter
Nc1ccc2c(c1)Oc1ccccc1C=C2 | -2 | . | -27 | . | . | . | 5802
COc1ccc(C(=O)n2nc(C)cc2C)cc1OC | -3 | 5 | -25 | 4 | 2 | 2.5 | 7935
Cc1nc2c(s1)sc1ccccc12 | 9 | 5 | -33 | . | . | 9.1 | 3356
O=C(NCCCN1CCOCC1)C(=O)NN=Cc1ccc(F)cc1 | . | 5 | . | -1 | 11 | 0.0 | .
Cc1ccc(C(=O)OC2CCCN(C)C2)cc1 (stereo not drawn) | -1 | 13 | -12 | 6 | 3 | -0.3 | 2178
C=CCOC(=O)C1=C(C)NC(=O)NC1c1ccc2c(c1)OCO2 (stereo not drawn) | -3 | -2 | -9 | -2 | -2 | 1.6 | 3258
CC1(C)NC(=O)N(CC(=O)OCC(=O)NC(=O)c2ccccc2)C1=O | -6 | 3 | -12 | -1 | -2 | 3.0 | ?
CCN1CCCC1CNC(=O)Cn1nc(C)n2c(cc3cc(C)ccc32)c1=O (stereo not drawn) | 1 | 1 | -13 | -1 | -6 | -0.1 | 7158
Nc1cccc(-c2nc3ccc(C(=O)c4ccccc4)cc3[nH]2)c1 | 26 | 3 | -58 | 2 | -2 | 5.7 | 3820
CN([C@@H](C(=O)OC(C)(C)C)c1ccccc1)S(=O)(=O)c1cccc(S(=O)(=O)N(C)[C@@H](C(=O)OC(C)(C)C)c2ccccc2)c1 | 4 | . | -14 | . | . | . | 2909
COc1ccc(CN2CCNC(=O)C2CC(=O)N(C)CCC2CCOCC2)c(OC)c1 (stereo not drawn) | 8 | 5 | -16 | 14 | 3 | 1.5 | 5233
CCOC(=O)N1CCN(C(=O)c2ccc3c(=O)n(CCC4=CCCCC4)c(=S)[nH]c3c2)CC1 | 0 | -20 | -11 | 3 | 9 | 7.2 | 2904
C[C@@H](C(=O)NCC1CC1)[C@H]1C[C@]1(C)[C@H](NC(=O)OCc1ccccc1)c1ccccc1 | -9 | . | 12 | . | . | . | 2883
CC(=O)OCCNC(=O)c1cc2ccccc2oc1=O | -5 | 4 | -26 | . | . | 1.2 | 2714
O=C(CSc1ccccc1)Nc1ccncc1 | 0 | 1 | -20 | 0 | 6 | 2.4 | 4082
CC1CN(c2ccccn2)C(C)CN1C(=S)Nc1ccccc1 (stereo not drawn) | . | 4 | -11 | 5 | 8 | 4.8 | 3681
Cc1cc(C)c(C)c(S(=O)(=O)N2CCC(C(=O)Nc3ccc(S(=O)(=O)N4CCOCC4)cc3)CC2)c1C | 8 | 0 | -1 | -2 | 2 | 3.6 | 6615

Assay outcomes deposited in PubChem by several laboratories.
